From PubChem
YjeE inh: qHTS Assay for Inhibitors of YjeE. 0.05% of 71,000 active. tRNA threonylcarbamoyladenosine biosynthesis protein TsaE (Escherichia coli (strain …. AID 605, 2007. purified YjeE, fluorescence polarisation of a bound ADP probe. Potency, µM; active = well fitted falling curve; inconclusive = weaker or top-dose-only fall, or a rising curve; inactive = flat or poorly fitted curve;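 further: top concentration of the series not given in the record; excess ADP was the control for the full effect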
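Purified YjeE (10 uM) with BODIPY Texas Red-labeled ADP probe (2 uM); compounds pin-transferred, 15 min at room temperature. Binding inhibition read as decreased fluorescence polarization; ADP titration as control.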
Bst PK mod: Pyruvate Kinase; partly purified Bacillus stearothermophilus pyruvate kinase, luminescence ATP production; ribose 5-phosphate activator present at AC10; AID 361, 2006; 1.2% of 51,000 active; Potency, µM; in the data active means potency below about 11 µM; inconclusive means mostly about 12 µM to 25 µM; inactive means weaker than that;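 the screen sought inhibitors and activators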;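 further: potency means the concentration at half of the fitted maximal effect; scaled between full activation by ribose 5 phosphate and full inhibition by luteolin; about four in five hits inhibit and the cells do not say which; series up to 57 µM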
The depositor's hits bear a star; i = inactive; / = no result given; & = joins results of further samples.

Values in the order – YjeE inh | Bst PK mod
COc1ccc(N2CCN(C(c3ccccc3)c3nnnn3Cc3ccc(F)cc3)CC2)cc1 (stereo not given)
  i | >57
Cc1cccc(CN2CCNC2=O)c1
  i | >57
COc1ccc(CCNC(=O)CSc2nnc(-c3cccc(C)c3)o2)cc1OC
  i | >57
O=C(CCS(=O)(=O)Cc1ccccc1F)N1CCc2ccccc2C1
  i | >57
Cc1noc(C)c1C(=O)N1CCc2ccccc2C1
  i | >57
Nc1ncnc2c1ncn2[C@@H]1O[C@@H](CO)[C@H](O)[C@@H]1O
  i | /
Nc1ccc2oc(-c3ccccn3)nc2c1
  i | /
Cc1cc(-n2c(C)cc(C(=O)CSc3nnnn3-c3ccccc3)c2C)no1
  i | >57
O=C(NCCC1=CCCCC1)N[C@@H](Cc1ccccc1)C(=O)O
  i | >57
COC(=O)c1ccc(COC(=O)c2ccccn2)cc1
  i | /
C=CCNC(=O)c1ccc(C)cc1Cl
  i | /
CS(=O)(=O)c1ccc2nc(NC(=O)C3C4C=CC(C4)C3C(=O)O)sc2c1 (stereo not given)
  i | >57
COc1cccc(-c2nc(NCc3ccc(OC)cc3OC)c3ccccc3n2)c1
  i | /
O=c1[nH][nH]c2nc(C(F)(F)F)cc(C(F)(F)F)c12
  i | >57
COc1ccc(N2C(=O)C(CC(=O)O)S/C2=C\C(C)=O)cc1 (stereo not given)
  i | >57
COc1ccc(Cc2nnc(SCC(=O)Nc3nc(C)cs3)o2)cc1
  i | >57
COc1ccc(CN(Cc2cc3ccc(C)cc3[nH]c2=O)Cc2nnnn2C2CCCC2)cc1
  i | >57
CCOC(=O)c1cc(CC)sc1NC(=O)Cc1ccsc1
  i | >57
O=C(CC12CC3CC(CC(C3)C1)C2)NCC(=O)N1CCCC1
  i | >57
CCOC(=O)c1sc2nc(N3CCOCC3)c3c(c2c1N)CC(C)(C)N(C)C3
  i | /
CCOC(=O)c1c(C)c(C(=O)N2CCN(c3cccc(Cl)c3)CC2)c(C)n1C
  i | >57
CCN(CC)CCOC(=O)c1cccc(Br)c1
  i | >57
C=CCn1c(Cc2cccs2)nnc1SCC(=O)Nc1cc(OC)cc(OC)c1
  i | >57
c1ccc(COc2ccc(OCCOCCn3cncn3)cc2)cc1
  i | /
COc1ccccc1CNC(=O)[C@@H]1CCCN1C(=O)C1CCN(S(=O)(=O)c2ccc(C)cc2)CC1
  i | >57
COc1ccc(CNc2ncncc2-c2cccc(NS(C)(=O)=O)c2)c(OC)c1
  i | /
CC(C)CC(c1nnnn1CC1CCCO1)N1CCN(c2cccc(Cl)c2)CC1 (stereo not given)
  i | >57
O=C(OCc1ccc2c(c1)OCO2)c1ccc(S(=O)(=O)N2CCCCC2)cc1
  i | /
COCCn1c(C)nc2oc3ccc(Br)cc3c(=O)c2c1=O
  i | /
COCCn1c(C)cc(C(=O)COC(=O)c2ccc(N3CCCC3=O)cc2)c1C
  i | >57
COc1ccccc1-c1cc(C(=O)Nc2cc(C)nn2-c2ccccc2)no1
  i | >57
Cc1cc(=O)oc2cc3c(cc12)OCCO3
  i | >57
CC1Cc2ccccc2N1C(=O)Cn1cnc2ccccc2c1=O (stereo not given)
  i | >57
Cc1ccc(C(=O)Nc2cccc(C(=O)NCc3ccccc3)c2)o1
  i | >57
COc1ccc(C(=O)NCC(c2ccc(F)cc2)N2CCOCC2)cc1S(=O)(=O)N1CCCC1 (stereo not given)
  i | >57
CCC(C)(C)NC(=O)CN(Cc1ccc2c(c1)OCO2)C(=O)CCC(=O)Nc1ccccn1
  i | >57
O=C1c2ccccc2C(Nc2ccc3c(c2)OCO3)N1Cc1ccc2c(c1)OCO2 (stereo not given)
  i | /
CCOC(=O)c1c(NC(=O)CSc2nnnn2C)sc(CC)c1C
  i | >57
C[C@]12CCC(=O)C=C1CC[C@@H]1[C@@H]2[C@@H](O)C[C@@]2(C)[C@H]1CC[C@]2(O)C(=O)CO
  / | >25.6
Cc1c2ccccc2c(CSC(=N)N)c2ccccc12
  i | /

Complete entries as entered above. Order of values: YjeE inh	Bst PK mod
`O=C(OCc1ccc2c(c1)OCO2)c1ccc(S(=O)(=O)N2CCCCC2)cc1` in the list: i	/
`c1ccc(COc2ccc(OCCOCCn3cncn3)cc2)cc1` in the list: i	/

Two successive records from above, quoted:
Values in the order – YjeE inh | Bst PK mod
COc1ccc(N2CCN(C(c3ccccc3)c3nnnn3Cc3ccc(F)cc3)CC2)cc1 (stereo not given)
  i | >57
Cc1cccc(CN2CCNC2=O)c1
  i | >57

Further compounds
Values in the order – YjeE inh | Bst PK mod
COC(=O)c1[nH]c2ccc(Cl)cc2c1NC(=O)CCN1CCOCC1
  i | >11.4
O=C(Nc1ccon1)c1ccccc1Cl
  i | >57
COc1ccc(NC(=O)c2cccc(Cn3cc(Br)cn3)c2)cn1
  i | >57
COC(=O)[C@H]1C[C@@H]1[C@H](NC(=O)OCc1ccccc1)c1ccccc1
  i | /
COc1ccccc1C[C@@H](Cc1nc2ccccc2[nH]1)c1nc2ccccc2[nH]1
  i | /
O=C(CCCn1c(=S)[nH]c2cc3c(cc2c1=O)OCO3)N1CCN(c2ccc(F)cc2)CC1
  i | >57
Cc1ccc(S(=O)(=O)N2CCN(C(=O)C3Cc4ccccc4CN3C(=O)c3ccco3)CC2)cc1 (stereo not given)
  i | >57
CC(Cc1ccccc1)C(=O)NCCO (stereo not given)
  i | /
CCN(CC)c1ncnc2sc(C(=O)N3CCN(c4ccccc4)CC3)c(C)c12
  i | >57
O=C(NCCC1=CCCCC1)c1ccc(F)c(S(=O)(=O)N2CCOCC2)c1
  i | >57
Cc1ccc(Cn2nnc3c(=O)[nH]c(C4CCN(S(=O)(=O)c5cc(C)ccc5C)CC4)nc32)cc1
  i | >57
CC(C)(C)NC(=O)C(c1ccco1)N(C(=O)Cn1nnc(-c2ccc(F)cc2)n1)c1ccccc1 (stereo not given)
  i | >57
Cc1ccc(Cl)cc1N1CCN(C(=O)C2CCN(S(=O)(=O)c3cnc[nH]3)CC2)CC1
  i | >57
Nc1nonc1-c1nc2ccccc2n1Cc1ccccc1
  i | >57
COc1ccc2c(c1)Cc1cc(N=[N+]([O-])c3ccc4c(c3)Cc3cc(OC)ccc3-4)ccc1-2
  i | /
O=C1C(Cl)=C(NCC2CCCO2)C(=O)N1Cc1ccccc1 (stereo not given)
  i | >57
O=C(Cc1cccs1)N1CCCC(c2nc3c(nnn3Cc3cccc(Cl)c3)c(=O)[nH]2)C1 (stereo not given)
  i | /
COc1cc(OC)c(C2=NOC(C(=O)Nc3cc(C)nn3-c3ccccc3)C2)cc1Cl (stereo not given)
  i | >57
COCCNC(=O)c1ccc(C(=O)NCCOC)s1
  i | >57
CCCNC(=O)C1CCN(S(=O)(=O)c2ccc(Br)cc2)CC1
  i | >57

Following part.
SMILES,YjeE inh,Bst PK mod
c1ccc(N2CCN(c3ccccc3)C2c2cccs2)cc1,i,/
O=C(c1ccccc1)c1ccc(OCC(O)CN2CCOCC2)cc1 (stereo not given),i,>57
COc1ccc(OC)c2[nH]c(=O)c(CCNS(=O)(=O)c3ccc(C)cc3)cc12,i,2.29*
CCOC(=O)c1cnc(NCc2ccccc2)nc1C,i,>57
COc1ccc(CCNC(=O)CSc2nc(-c3ccco3)cc(C(F)(F)F)n2)cc1OC,i,>57
CCC1(c2ccc(F)cc2)NC(=O)N(CC(=O)c2ccc[nH]2)C1=O (stereo not given),i,>57
CCC1CCCCN1C(=O)CSc1nc(N)c(NC(=O)c2ccc(OC)c(OC)c2)c(=O)[nH]1 (stereo not given),i,/
CC(=O)c1cccc(NC(=O)c2cc(-n3cnnc3)ccc2Cl)c1,i,>57
O=C(CSc1ncccc1C(=O)O)c1ccccc1,i,/
CCOc1cc(C(=O)N2CCc3cc(OC)c(OC)cc3C2)ccc1OC(F)F,i,>57
COc1ccc(C(CNC(=O)COc2ccccc2OC)N(C)C)cc1OC (stereo not given),i,>57
Nc1ccc(C(=O)O)c(O)c1,/,>25.6&>25.6
Cc1ccc(OCc2nnc(SCC(=O)CC(=O)Nc3ccccc3)o2)cc1,i,>57
Cc1c(/C=N/n2cnnc2)c2ccccc2n1C,i,/
COc1ccc(CCNC(=O)C2=COCCO2)cc1,i,>57
COc1ccc(N(CC(=O)Nc2nc3ccc(C)cc3s2)S(=O)(=O)c2c(C)nn(C)c2C)cc1,i,/
CN/C(=C\[N+](=O)[O-])NCCSCc1ccc(CN(C)C)o1,i,/
O=C(NCCc1ccc(Cl)cc1)C1CCN(S(=O)(=O)N2CCCCC2)CC1,i,>57
O=C(NCC1CCCO1)c1ccc(C(=O)NCC2CCCO2)cc1 (stereo not given),i,>57
CCOc1ccc(-n2ccnc2SCC(=O)Nc2nnc(CC)s2)cc1,i,>57
Cc1ccc(C)n1-c1ccc(N2CCOCC2)nc1,i,>57
Cc1ccc(C(C(=O)NCc2ccco2)N(Cc2ccco2)C(=O)CNC(=O)c2ccco2)cc1 (stereo not given),i,>57
CCCSc1nc(N)cc(=O)[nH]1,i,>57
Nc1nonc1C(=O)NCCNCc1cc(Br)ccc1OCc1ccc(F)cc1,i,/
CCNc1nc(Oc2ccc(C(=O)OC)cc2)nc(SC)n1,i,>57

Look-ups from the list:
In Bst PK mod, Cc1ccc(C)n1-c1ccc(N2CCOCC2)nc1 is entered as >57
In Bst PK mod, O=C(NCC1CCCO1)c1ccc(C(=O)NCC2CCCO2)cc1 (stereo not given) is entered as >57

Following part:
SMILES,YjeE inh,Bst PK mod
CCc1ccc(CNc2ccc(O)cc2)cc1,i,/
O=C(Nc1sc2c(c1C(=O)NCc1cccnc1)CCCC2)c1ccco1,i,/
CCOc1ccc(CNC(=O)C2CCN(S(=O)(=O)N3CCCC3)CC2)cc1OC,i,>57
Cc1nnc(NC(=O)C2CCCN(S(=O)(=O)c3ccccc3C(F)(F)F)C2)s1 (stereo not given),i,>57
Cc1nnc(C)c2c(C)n(-c3ccc(Br)cc3)c(C)c12,i,/
Cc1cc(C)n(-c2nc3ccccc3c(=O)n2OCC(=O)N(C)C)n1,i,>57
COCCNC(=O)C(c1ccccc1)N(Cc1cccs1)C(=O)Cn1nnc2ccccc21 (stereo not given),i,>57
CCc1nnc(NC(=O)CSc2nnc(COc3ccc(C)cc3)n2-c2ccccc2)s1,i,>57
CSCC[C@H](NC(=O)Nc1ccc(C)cc1C)C(=O)O,i,>57
CN(CC(=O)N1CCCCCC1)S(=O)(=O)c1ccc(Br)s1,i,>57
CCOC(=O)c1cccc(NC(=O)CSc2nnc(-c3cccnc3)n2C)c1,i,>57
Cc1onc(-c2c(F)cccc2Cl)c1C(=O)OCn1nnc2ccccc2c1=O,i,/
COC(=O)c1ccc(C(NC(=O)OCc2ccccc2)/C(I)=C/[C@@H](C)C(=O)Nc2ccccc2)cc1 (stereo not given in full),i,/
CSc1nc(-c2ccco2)cc(-c2ccccc2)c1C#N,i,>57
CCCNC(=O)CC1Sc2ccccc2NC1=O (stereo not given),i,>57
CCS(=O)c1ccccc1C(=O)O (stereo not given),i,>57
CCCCNc1c(C(=O)OCC)c(C)nc2c1cnn2CC,i,/
CC1(C)C(=O)C2(CCCCC2)C(=O)OC1c1cccs1 (stereo not given),i,>57
CC(Sc1nc(N2CCCCC2)c2c(c1C#N)CCCC2)C(=O)O (stereo not given),/,>25.6
Cc1ccccc1C(=O)NCc1ccncc1,i,>57
Cc1cc(NC(=O)c2ccc3nc(C)sc3c2)no1,i,>57
COc1ccc(CN(CCN(C)C)Cc2ccccc2)c(OC)c1,i,>57
Cc1ccc(CCN2CC(C(=O)NCCN3CCOCC3)CC2=O)cc1 (stereo not given),i,>57
Clc1ccccc1-c1nnc2sc(CCc3ccccc3)nn12,i,i
CC(=O)N1CCC[C@@]2(CCN(c3ccccc3)C2)C1,i,/
OC1(c2cccc(C(F)(F)F)c2)CCNCC1,i,>57
Cc1cccc(N=C2NC(=O)/C(=C3/C(=O)N(C)c4ccccc43)S2)c1C,i,/
COc1cc(C)nc(N(C)S(=O)(=O)c2ccccc2Cl)n1,/,>25.6
O=C1OC(NC(=O)c2ccccc2)C(N2CCOCC2)=C1Cl (stereo not given),i,>57
CC(=O)NC1CC2CCCC(C1)N2CC(=O)NCc1ccc(F)cc1 (stereo not given),i,>57
COc1ccc(N2CCCn3c2nc2c3c(=O)n(Cc3ccccc3F)c(=O)n2C)c(OC)c1,i,>57
CC(CCc1ccccc1)NC(=O)C1CCCN(C(=O)c2cc3sccc3n2C)C1 (stereo not given),i,>57
CCOc1ccc(N2C(=O)CC(NCCc3ccc(S(N)(=O)=O)cc3)C2=O)cc1 (stereo not given),i,/
CCCS(=O)(=O)N1CCN(C(=O)c2cc(OC)cc(OC)c2)CC1,i,>57
COc1ccc(Cc2nnc(SCC(=O)NC3CCCCC3)n2C)cc1,i,>57
Cc1ccnc(SCC(=O)Nc2oc(-c3ccccc3)c(-c3ccccc3)c2C#N)n1,i,>57
CCc1cccc(N(C)C(N)=Nc2cccc3ccccc23)c1,i,/
O=C(O)c1cccn1Cc1ccccc1F,i,>57
CCOC(=O)c1ccc(NC2c3ccccc3C(=O)N2c2cccnc2)cc1 (stereo not given),i,/
COCCc1ccc(OC[C@H](O)CNC(C)C)cc1,i,/
COc1ccc(C(=O)N2CCC(C(=O)Nc3cccc(C)c3)CC2)cc1OC,i,/

The list is partial, so the mix of outcomes need not match the whole.
